Screening data deposited in PubChem BioAssay by National Center for Advancing Translational Sciences (NCATS).
ClpP mod – qHTS Assay for Activators of ClpP; ATP-dependent Clp protease proteolytic subunit (Bacillus subtilis (strain 168)), P80244; AID 651965, 2013; purified B. subtilis ClpP, FRET peptide cleavage, 20 min; 1.9% of 340,000 active; Potency, µM (series often up to 57.5 µM), for the others: at the highest dose activity change, negative = active; active = well fitted falling curve with a large enough effect; inconclusive = small, poorly fitted or top-dose-only effect; inactive = no such curve, though single readings can be large or run the other way; note: the source files actives as falling curves though it sought activators and does not explain the sign; nearly all actives have a fitted effect of over 65% in size; many hits overshoot -100%
Target sequence (P80244 whole entry, looked up): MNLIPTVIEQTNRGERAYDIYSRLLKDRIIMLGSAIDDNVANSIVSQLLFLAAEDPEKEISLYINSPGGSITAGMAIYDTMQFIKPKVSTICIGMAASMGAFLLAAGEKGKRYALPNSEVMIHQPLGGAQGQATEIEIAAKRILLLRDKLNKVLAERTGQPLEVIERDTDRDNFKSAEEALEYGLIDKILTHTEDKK
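ClpP 10 microg/mL final, pH 8 Tris/KCl buffer with BSA, glycerol, Tween-20; compound pinned in; FRET-FV substrate; RT 20 min; Ex320/Em430; ΔFRET vs ADEP 5.8 microM, DMSO, no enzyme.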
An asterisk follows results filed as active; ! = repeats disagree. Potency is the fitted concentration of half-maximal effect. These rows are one share of the data, so the mix of outcomes need not match the whole.

`O=C(Nc1ccccc1F)c1csc([C@@H]2C[C@H](O)[C@@H](CO)O2)n1` gave ClpP mod -0.4%.
For CCCN(CCC)Cc1cc(=O)oc2cc(C)cc(C)c12 the results were ClpP mod 1.8%.
CC1(Cc2ccccc2Cl)C(=O)Nc2c(Cl)ccc(Cl)c21 (stereo not drawn) was read as ClpP mod -0.4%.
Cc1ccccc1-c1cnc(C(O)c2cccc(C)c2C)[nH]1 (stereo not drawn) was read as ClpP mod -2.6%.
Screening O=C(NCc1cc(Cl)cc(Cl)c1)c1csc([C@@H]2C[C@H](O)[C@@H](CO)O2)n1 returned ClpP mod -4.5%.
For COc1ccc(NC(=S)Nc2ccc3c(c2)c(=O)n(C)n3-c2ccccc2)cc1 the results were ClpP mod 4.8%.
Screening Cc1ccccc1OCC(=O)NCC(=O)OCC(=O)c1ccc(Br)cc1 returned ClpP mod 0.8%.
`OC[C@@H]1CN(Cc2ccc(Cl)cc2)C[C@H](n2cnc3c(Nc4ccccc4)ncnc32)O1` gave ClpP mod -14%.
`N#Cc1cccc(NC(=O)c2cc(C3CCCCN3C(=O)C3CC3)on2)c1` (stereo not drawn) gave ClpP mod -0.4%.
`OC[C@@H]1CN(Cc2ccccc2)C[C@H](n2cnc3c(NC4CCCC4)ncnc32)O1` gave ClpP mod 1.2%.
COc1ccc(OCCCn2c(CCNC(=O)C3CCCCC3)nc3ccccc32)cc1 was read as ClpP mod -5.4%.
Screening COc1ccc(Br)c(Cn2c(C)c(C(=O)NCc3cccs3)sc2=O)c1 returned ClpP mod 1.4%.
`CCCCc1ccc(S(=O)(=O)NC(=O)C2(C)CCN2C(=O)c2c(C)noc2C)cc1` (stereo not drawn) gave ClpP mod -2.1%.
Screening CCC(=O)N1CCC1(C)C(=O)Nc1ccc(C)c(C)c1 (stereo not drawn) returned ClpP mod 0.5%.
For N#CC1=C(N)CCC1 the results were ClpP mod -0.4%.
Screening COCCNC(=O)C1(C)CCCN(C(=O)c2cc(F)cc(F)c2)C1 (stereo not drawn) returned ClpP mod -5.4%.
For CCCCCCCCCC[n+]1cccc2cc(Cl)ccc21 the results were ClpP mod -3.1%.
Screening CCCCCCCCCCCCCCCC[n+]1ccc(/C=C/c2c(C)[nH]c3ccccc23)cc1 returned ClpP mod -1.8%.
Screening O=C(c1[nH]c(C(F)(F)F)nc1-c1ccccc1)N1CCc2ccccc2C1 returned ClpP mod -1.9%.
Cc1cc2nc(-c3ccc(F)cc3)c(CC3CCCCC3)n2c(C)c1Br was read as ClpP mod -0.7%.

Entries shown so far that contain fluorine, in the order listed:
`O=C(Nc1ccccc1F)c1csc([C@@H]2C[C@H](O)[C@@H](CO)O2)n1` gave ClpP mod -0.4%.
Screening COCCNC(=O)C1(C)CCCN(C(=O)c2cc(F)cc(F)c2)C1 (stereo not drawn) returned ClpP mod -5.4%.
Screening O=C(c1[nH]c(C(F)(F)F)nc1-c1ccccc1)N1CCc2ccccc2C1 returned ClpP mod -1.9%.
Cc1cc2nc(-c3ccc(F)cc3)c(CC3CCCCC3)n2c(C)c1Br was read as ClpP mod -0.7%.

The list goes on:
Screening COc1ccc(CNC(=O)Nc2nc(C(N)c3ccccc3)cs2)cc1 (stereo not drawn) returned ClpP mod 1.3%.
COc1ccc(CC(N)c2csc(Nc3cc(NCc4ccco4)ncn3)n2)cc1 (stereo not drawn) was read as ClpP mod 2.2%.
`COC(=O)Cn1nnnc1-c1nc2cc(C)c(C)cc2[nH]c1=O` gave ClpP mod -9.8%.
`CN(C)c1ccc(-c2[nH][nH]c(=O)c2NC(=O)c2ccc3ccccc3n2)cc1` gave ClpP mod -3.1%.
`COC(=O)[C@]12CCCCC=C1N(Cc1ccc3c(c1)OCO3)C(=O)[C@H](CC(=O)N1CCC(c3ccccc3)CC1)C2` gave ClpP mod -3.2%.
`CC1Cc2[nH]c(=S)[nH]c(=O)c2C(c2ccc(F)cc2)O1` (stereo not drawn) gave ClpP mod -0.6%.
Screening COC(=O)[C@]12CCCCC=C1N(Cc1ccccc1)C(=O)[C@H](CC(=O)NCC13CC4CC(CC(C4)C1)C3)C2 returned ClpP mod 2.0%.
C[N+](C)(C)CCN1C(=O)c2ccccc2C1=O was read as ClpP mod -3.1%.
For CN1OC[C@@H]2CN(C(=O)CCc3ccccc3)[C@H](c3ccc(-n4ccnc4)cc3)C[C@@H]21 the results were ClpP mod -0.6%.
For CC(O)(c1ccc(F)c(F)c1)c1nc(-c2cccc(F)c2)cs1 (stereo not drawn) the results were ClpP mod -2.9%.
Screening CC(C)NC(=O)c1cc(C2CCCCN2C(=O)CCCc2ccccc2)on1 (stereo not drawn) returned ClpP mod 1.6%.
Screening CN(C)CCNc1ncnc2c1ncn2[C@H]1CN(Cc2ccc3c(c2)OCO3)C[C@@H](CO)O1 returned ClpP mod -2.4%.
For CN(C)CCN(C)C1CN(Cc2ccccc2)S(=O)(=O)C1 (stereo not drawn) the results were ClpP mod -2.0%.
`CCCCNC(=O)C1(C)CCCCN1CC(=O)c1ccc(OC)cc1` (stereo not drawn) gave ClpP mod -11%.
COc1cccc(CNC(=O)[C@@H]2CCCN2C(=O)[C@@H]2CCCN2C(=O)c2c(F)cccc2F)c1 was read as ClpP mod -1.6%.
Cc1cccc(C)c1NC(=O)C(c1ccc(C#N)cc1)n1c(=O)c(-c2ccccc2)nc2ccccc21 (stereo not drawn) was read as ClpP mod inconclusive.
For CCCCCCCCCC[n+]1ccc(/C=C/c2c[nH]c3ccccc23)cc1 the results were ClpP mod 1.5%.
Screening CC1(C(=O)NS(=O)(=O)c2ccccc2Cl)CCN1C(=O)c1ccccc1 (stereo not drawn) returned ClpP mod 1.6%.
For COc1cc(OC)cc(C2=Cc3ccccc3C(CC(C)=O)N2c2ccc(C#CCCO)cc2)c1 (stereo not drawn) the results were ClpP mod inconclusive.
For Clc1nc(NCC2CCCO2)c2[nH]cnc2n1 (stereo not drawn) the results were ClpP mod -4.6%.

The last three records of the section above lead into the next.
Screening CC1(C(=O)NS(=O)(=O)c2ccccc2Cl)CCN1C(=O)c1ccccc1 (stereo not drawn) returned ClpP mod 1.6%.
For COc1cc(OC)cc(C2=Cc3ccccc3C(CC(C)=O)N2c2ccc(C#CCCO)cc2)c1 (stereo not drawn) the results were ClpP mod inconclusive.
For Clc1nc(NCC2CCCO2)c2[nH]cnc2n1 (stereo not drawn) the results were ClpP mod -4.6%.
O=C(NCc1ccc(F)cc1)c1cc(C2CCCCN2S(=O)(=O)c2ccc(F)cc2F)on1 (stereo not drawn) was read as ClpP mod -0.1%.
CC(C)c1ccc(NC(=O)Nc2nc(C(N)C(C)C)cs2)cc1 (stereo not drawn) was read as ClpP mod 3.4%.
Screening Nc1ccc(-c2cc(NC=O)c3ncc(-c4cccc(C(F)(F)F)c4)n3c2)cn1 returned ClpP mod -12%.
Cc1ccc(CNC(=O)/C=C/[C@H]2O[C@@H](n3cc(C)c(=O)[nH]c3=O)C[C@@H]2O)o1 was read as ClpP mod -5.8%.
For CCOc1ccccc1CN1[C@@H](c2ccc(OC)cc2)CC(C(=O)OC)(C(=O)OC)[C@H]1c1ccccc1 the results were ClpP mod -6.7%.
Screening Cc1ccc(CNC(=O)OC2CC3CC2[C@H]2CCCCN2C3=O)cc1 (stereo partly drawn) returned ClpP mod -0.6%.
Cc1nc2c(OCCOc3ccccc3)cccn2c1N(C)C(=O)CCC1CCCC1 was read as ClpP mod -4.7%.
`COC(=O)C1=CN(c2ccc(N3CCOCC3)cc2)C(N)=C(C#N)C1c1ccccc1` (stereo not drawn) gave ClpP mod -5.2%.
For COc1ccc(CCN2C(=O)CSCC2(C)C(=O)Nc2ccc3c(c2)OCCO3)cc1OC (stereo not drawn) the results were ClpP mod 0.8%.
COc1cccc(-c2cc3nc(NCc4ccccc4OC)n(C)c(=O)c3s2)c1 was read as ClpP mod 4.5%.
For Cc1ccc(NC(=O)c2ccc(NC(=O)C3CCCC3)cc2)c(C)c1 the results were ClpP mod -4.6%.
COc1cc(C(=O)N2CCCCC2c2cc(C(=O)Nc3ccccc3Cl)no2)cc(OC)c1C (stereo not drawn) was read as ClpP mod -23%.
Screening O=C1NC[C@H](CCCCN2C[C@H](Cc3ccc(O)cc3)N(CCc3ccc(O)cc3)C(=O)C2=O)N(CCc2ccccc2)C1=O returned ClpP mod 0.6%.
Screening Nc1nc(Cl)nc2c1ncn2C1CCC(CO)O1 (stereo not drawn) returned ClpP mod 1.6%.
`c1csc(CNc2ccn3nc(-c4ccc(OCCN5CCOCC5)cc4)cc3n2)c1` gave ClpP mod 4.7%.
Screening CCOC(=O)[C@]12CCCC=C1N(Cc1ccco1)C(=O)[C@H](CC(=O)NCc1ccccc1)C2 returned ClpP mod -1.2%.
`Cc1ccc(S(=O)(=O)/C=C2\OCc3ccccc32)cc1` gave ClpP mod 0.6%.
Screening COc1ccc(-c2ccc(C(=O)Nc3cccc(C(F)(F)F)c3)c3occc23)c(C)c1 returned ClpP mod 4.5%.
CCN(CC)c1ccccc1/C=C/[n+]1ccc(CCCCI)c2ccccc21 was read as ClpP mod -1.6%.
Screening Cc1cc(C)nc(Nc2nc(C(N)Cc3ccc(C(F)(F)F)cc3)cs2)n1 (stereo not drawn) returned ClpP mod -0.4%.
`COc1ccc(-c2nc3c(=O)n(C)c(=O)nc-3n(C)n2)cc1` gave ClpP mod -2.9%.
Screening COc1ccc(CN2C(=O)c3ccccc3C2c2nnnn2-c2ccc3c(c2)OCCO3)cc1OC (stereo not drawn) returned ClpP mod 1.2%.
Screening O=S(=O)(c1cccc(Cl)c1)N1CCN(c2nc(-c3cccs3)nc3ccccc23)CC1 returned ClpP mod 14µM*!.
For O=C(Nc1ccc2c(c1)OCO2)c1cc(C2CCCCN2C(=O)CCCc2ccccc2)on1 (stereo not drawn) the results were ClpP mod -9.7%.
`O=C1c2ccccc2C(c2nnnn2-c2ccc3c(c2)OCCO3)N1Cc1cccnc1` (stereo not drawn) gave ClpP mod 2.2%.
Screening COc1ccc(-c2ccccc2)cc1NC(=O)[C@@H]1O[C@H](CO)[C@H](O)[C@H](O)[C@H]1O returned ClpP mod -4.9%.
Screening COc1cccc(NC(=O)C2(C)CCN2CCc2ccccc2)c1 (stereo not drawn) returned ClpP mod 0.9%.
CC1(C(=O)NS(=O)(=O)C2CC2)CCN(C(=O)c2cccc(Cl)c2)C1 (stereo not drawn) was read as ClpP mod -0.1%.
CCc1nc2ccc(C(=O)NCC3CCCCC3)cn2c1N(C)Cc1ccc(OC)cc1 was read as ClpP mod -1.9%.
`OCc1cccc(-c2csc(C(O)c3ccccc3)n2)c1` (stereo not drawn) gave ClpP mod -0.9%.
Screening NC(Cc1ccc(F)cc1)c1csc(Nc2ccc(C(=O)c3ccccc3)cc2)n1 (stereo not drawn) returned ClpP mod -5.3%.
For CC1(C(=O)Nc2ccc3nc[nH]c3c2)CCN1C(=O)C1(c2ccccc2)CCCC1 (stereo not drawn) the results were ClpP mod 1.2%.
COc1cccc(C(=O)N2[C@H](COCc3ccccc3)C=CS2(=O)=O)c1 was read as ClpP mod -6.1%.
`C=C1C=C(C)n2ncc(C(=O)NCCCCCC)c2N1` gave ClpP mod 4.3%.
`Clc1ccc(-c2nc3c4ccccc4ccn3c2Cc2cccc(Cl)c2)cc1` gave ClpP mod -3.0%.
`CCCOc1ccc(F)cc1-c1cc(C(=O)Nc2cc(OC)c(OC)c(OC)c2)[nH]n1` gave ClpP mod inconclusive.
For Cc1cccc(S(=O)(=O)NC(=O)C2(C)CCN2C(=O)CC2CCCCC2)c1 (stereo not drawn) the results were ClpP mod -0.4%.
`COC(=O)[C@]12CCCCC=C1N(CCc1ccc(OC)c(OC)c1)C(=O)[C@H](CC(=O)NCc1ccc(C)o1)C2` gave ClpP mod -0.3%.
Screening CCCCCCCCN1C(=O)[C@H](CC(=O)N2CCN(C(=O)c3ccco3)CC2)C[C@@]2(C(=O)OCC)CCCC=C12 returned ClpP mod 5.0%.
Screening O=C1NC[C@H](CCCCN2CCN(Cc3ccccc3)C(=O)C2=O)N(CCc2ccc(O)cc2)C1=O returned ClpP mod 1.9%.

Fetched by structure from the entries so far (2):
CCc1nc2ccc(C(=O)NCC3CCCCC3)cn2c1N(C)Cc1ccc(OC)cc1 was read as ClpP mod -1.9%.
Screening O=C1NC[C@H](CCCCN2CCN(Cc3ccccc3)C(=O)C2=O)N(CCc2ccc(O)cc2)C1=O returned ClpP mod 1.9%.
